Compound activity: PubChem, SRMLSC
H5N1 CPE – MDCK cell protection from H5N1 avian flu; cytopathic effect, luminescence, 72 h; active compounds read high; no value below 0 was filed and about half of the inactive calls have no number; reference of the scale not given here; inhibition, % at 50 µM; 96,000 tested, 0.07% active; in the data active = inhibition above about 25%
Active calls of the source: *; i = inactive. Some of the compounds tested (hit frequency here may not be typical).

SMILES	H5N1 CPE
CC(C(=O)NC(=O)NC1CCCCC1)N1CCN(c2ccccn2)CC1 (stereo not drawn)	2.3
O=C(NC(Cc1ccc2c(c1)OCO2)C(=O)N1CCCC1C(=O)O)c1ccccc1 (stereo not drawn)	i
COC(=O)C1=CN(CCCN2CCCC2=O)C=C(C(=O)OC)C1c1ccccc1C(F)(F)F	i
COc1ccc(C(=O)Nc2ccc(N3CCOCC3)cc2)cc1OC	i
Cc1nc2nc(C)c(CCC(=O)O)c(C)n2n1	0.4
O=C(CSc1nnc(CCc2ccccc2)n1-c1ccc(Cl)cc1)NCc1ccccc1	i
CSc1nc(C)cc(NC(N)=O)n1	i
CC(C(=O)O)N1C(=O)c2cccc3cccc1c23 (stereo not drawn)	i
O=C(Nc1cc(Cl)ccc1Oc1ccccc1)c1cnccn1	0.4
CCCCCCn1c(SCCC)nc2c1c(=O)[nH]c(=O)n2C	0.2
CCOc1ccc(C(=O)Nc2ccccc2N2CCOCC2)cc1	2.8
Cc1ccc(Cn2nc(C)c(NC(=O)c3cc(-c4ccc5c(c4)OCO5)on3)c2C)cc1	i
COc1cccc(NC(=O)c2ccccc2-c2nc(-c3ccccc3)no2)c1	0.2
C=CCOc1c(Cl)cc(C2NC(=O)NC(C)=C2C(=O)OC)cc1Cl (stereo not drawn)	1.0
CC1CC(C)(C)NC(=O)O1 (stereo not drawn)	0.1
O=S(=O)(NC1CCCC1)c1cccc(S(=O)(=O)N2CCC(n3nnc4ccccc43)CC2)c1	i
Cn1c(-c2ccccc2)cc2c3no[n+]([O-])c3ccc21	0.8
O=C(COc1ccc(/C=N/NS(=O)(=O)c2ccccc2)cc1)Nc1ccc(F)cc1	0.5
Cc1nc([N+](=O)[O-])c(Br)n1CC(=O)c1ccc(Cl)cc1	0.6
CCN1CCN(c2nc3c(C)cccn3c(=O)c2/C=C(\C#N)S(=O)(=O)c2ccc(C)cc2)CC1	0.4
c1ccc(-c2ccc(-c3cn4c(n3)CCC4)cc2)cc1	i
CS(=O)(=O)c1ccc2nc(NC(=O)c3cccs3)sc2c1	0.1
CCn1c(SCC(=O)c2ccc(O)c(O)c2)nnc1-c1ccccc1	1.4
CCN(CC)C(=O)c1sc(NC(=O)c2ccco2)c(C#N)c1C	10
CCOc1ccc(-c2nc(N)ncc2-c2ccccc2)c(O)c1	5.3
Other entries
SMILES	H5N1 CPE
CCN(CC)S(=O)(=O)c1ccc2c(c1)nc(SCC(=O)N1CCOCC1)n2-c1ccccc1OC	i
CC(C)CCNC(=O)c1ccc2nc[nH]c2c1	0.9
CCOC(=O)c1sc(C)c2c1NC1(CCCCC1)NC2=O	1.8
CCCC1=C(C(=O)OCC)C(c2cccs2)C(C#N)=C(N)O1 (stereo not drawn)	i
COc1ccc(NC(=O)c2oc3ccccc3c2NC(=O)COc2ccccc2OC)c(OC)c1	0.9
CC(=O)Nc1c(O)nc(SCC(=O)N2CCN(c3ccc(F)cc3)CC2)[nH]c1=O	i
CC(C)OC(=O)CSc1nc2cccnc2n1C1CCCCC1	i
Cc1noc(C)c1C(=O)NCCCc1ccccc1	i
NC(=O)NCc1ccc(Cl)cc1	i
CCOC(=O)c1nnn(-c2nonc2N)c1-c1cccs1	i
CCNS(=O)(=O)c1ccc(NC(=O)c2cc(C(F)(F)F)nn2C)cc1	i
CCCn1nnnc1NCc1cccn1C	i
CC(C)Cc1nnc(NC(=O)CCN2C(=O)c3ccccc3C2=O)s1	1.0
O=C1CC(c2ccccc2)C(=O)N1c1cccc(O)c1 (stereo not drawn)	i
Cc1nc(NC(=O)CSc2nnc3ccccn23)c(Cl)cc1Cl	0.6
CC(C)(C)NC(=O)NC(=O)COC(=O)CCCc1c[nH]c2ccccc12	i
N#Cc1c(NC(=O)Cn2nc(C(F)(F)F)c3c2CCCC3)sc2c1CCC2	i
O=c1c2ccccc2nc(N2CCCC2)n1-c1ccc(Cl)cc1	i
CC(C)Cn1c(N)c(C(=O)COC(=O)c2ccc3ccccc3n2)c(=O)n(C)c1=O	1.5
COC(=O)c1[nH]c2cccc(OC)c2c1NC(=O)CN1CCOCC1	i
c1ccc(CCc2ccccc2-c2nc(-c3ccccn3)no2)cc1	0.3
CCCCCOc1ccc(CN2CCOCC2)cc1Cl	0.5
O=C(CN(Cc1ccc2c(c1)OCO2)C(=O)CNS(=O)(=O)c1ccccc1)NCc1ccco1	0.5
Cc1cccc(OCC(=O)Nc2ccc3c(c2)OCCO3)c1	i
CCCOc1ccc(C(=O)NCCCn2ccnc2)cc1	0.4

Ordered by SMILES length (largest number first): part of the list above.
SMILES	H5N1 CPE
O=S(=O)(NC1CCCC1)c1cccc(S(=O)(=O)N2CCC(n3nnc4ccccc43)CC2)c1	i
CC(=O)Nc1c(O)nc(SCC(=O)N2CCN(c3ccc(F)cc3)CC2)[nH]c1=O	i
Cn1c(-c2ccccc2)cc2c3no[n+]([O-])c3ccc21	0.8
O=C1CC(c2ccccc2)C(=O)N1c1cccc(O)c1 (stereo not drawn)	i
CC(C(=O)O)N1C(=O)c2cccc3cccc1c23 (stereo not drawn)	i
NC(=O)NCc1ccc(Cl)cc1	i

Returning to the listing, repeating the 4 entries before the break.
SMILES	H5N1 CPE
CCCCCOc1ccc(CN2CCOCC2)cc1Cl	0.5
O=C(CN(Cc1ccc2c(c1)OCO2)C(=O)CNS(=O)(=O)c1ccccc1)NCc1ccco1	0.5
Cc1cccc(OCC(=O)Nc2ccc3c(c2)OCCO3)c1	i
CCCOc1ccc(C(=O)NCCCn2ccnc2)cc1	0.4
O=C(Nc1cccc(C(=O)N2CCN(Cc3ccccc3)CC2)c1)c1ccccc1	1.1
Cc1ccc(C(=O)NCCSC2CCCCC2)cc1S(=O)(=O)Nc1ccccc1	1.4
COC(=O)c1ccc2c(=O)n(CCCCCC(=O)NCc3ccc4c(c3)OCO4)c(=O)[nH]c2c1	0.3
COc1ccc(S(=O)(=O)N2CCC(C(=O)N3CCCC3)CC2)cc1	0.2
COc1ccc(NC(=O)/C(Cl)=C(/Cl)S(=O)(=O)Cc2ccccc2)cn1	0.2
Cc1ccnc2nc(C(=O)Nc3nnc(CC(C)C)s3)nn12	0.2
CCSC1=NC(C)(C)C=C(C)N1	1.8
COc1ccc(S(=O)(=O)Cc2ccc(C(=O)N3CCN(C4CCCCC4)CC3)o2)cc1	0.3
COc1cc(NC(=O)c2ccco2)c(OC)cc1NC(=O)c1cc(OC)c(OC)c(OC)c1	i
CCOP(=O)(c1ccc(N(C)C)cc1)C(O)c1c(Cl)cccc1Cl (stereo not drawn)	0.5
CC(C)C(NS(=O)(=O)c1cccs1)C(=O)NCc1ccc2c(c1)OCO2 (stereo not drawn)	i
Cc1ccc(CC2(O)CC(C)N(C)CC2C)c(C)c1 (stereo not drawn)	i
COC(=O)c1c(NC(=O)CSc2n[nH]c(N)n2)sc(C)c1C	1.2
Cc1cccc(-n2ncc3c(NCCCN4CCCC4=O)ncnc32)c1	0.2
COc1cc(C(O)P(=O)(OC(C)C)c2ccc(N(C)C)cc2)cc(OC)c1OC (stereo not drawn)	i
CN(C)S(=O)(=O)c1ccc(NC(=O)Cn2c(-c3ccccc3)noc2=O)cc1	0.3
Cc1onc(-c2c(F)cccc2Cl)c1C(=O)Nc1cccc2nsnc12	0.1
Cn1c(=O)c(C(=O)Nc2ccccn2)c(O)c2ccccc21	i
Cc1ccc[n+](C(C)C(=O)Nc2ccc(C)c([N+](=O)[O-])c2)c1 (stereo not drawn)	i
O=C(O)CSCC(=O)Nc1ccc(S(=O)(=O)N2CCCCC2)cc1	0.3
Cc1ccc2c(c1)N(C(=O)c1ccco1)C(C)(C)c1ssc(=S)c1-2	0.6
CCCCOCCCNC(=O)c1cccs1	i
CCOC(=O)c1ccc(NC(=O)CN(C)S(=O)(=O)c2ccc(OC)cc2)cc1	i
CCCS(=O)(=O)n1nc(-c2ccccc2)cc1N	0.5
CCCNc1nc(OCC(F)(F)F)nc(OCC(F)(F)F)n1	i
Following part.
SMILES	H5N1 CPE
COc1ccc(CN(C(=O)c2ccc3c(c2)OCCO3)C(C(=O)NC2CCCCC2)c2ccc3ncccc3c2)cc1 (stereo not drawn)	i
CN1CCN(C(=O)CCc2nc3ccccc3c(=O)[nH]2)CC1	1.5
COc1cccc(C(=O)NCC2CCCO2)c1 (stereo not drawn)	0.7
CC(C)C(=O)Nc1cccc(C(=O)NCCc2ccc(S(N)(=O)=O)cc2)c1	0.4
CC1(C)CC(=O)C(C=Nc2ccc3c(c2)OCO3)=C(O)C1	0.5
Cc1csc(NC(=O)CN2CCCCCC2)n1	4.6
Cc1ccc(C(=O)NCc2ccco2)cc1S(=O)(=O)N1CCCCC1	2.4
Cc1cc([P+](=O)O)c(C)n1-c1ccc(Br)cc1	i
COCC(=O)Nc1cc(=O)n(C)c(=O)n1C	1.3
NC(=O)CNC1CC(=O)N(CCc2ccccc2)C1=O (stereo not drawn)	1.8
c1ccc(-n2cnc3cc(NCc4cccs4)ccc32)cc1	i
CCN(CC)c1ccc2oc(=O)c(C)nc2c1	2.0
CCOCC(=O)Nc1cccc(OC)c1	i
O=C(CCN1C(=O)c2ccccc2C1=O)OCn1nnc2ccccc2c1=O	0.1
CC(C)(C)OC(=O)N1CCC(c2c(C(=O)O)cnn2-c2ccccc2Cl)CC1	1.7
CC1=C(C(=O)Nc2ccccc2)C(c2cccs2)n2nnnc2N1 (stereo not drawn)	i
COc1cccc(-c2cc(C(=O)Nc3c(C)n(C)n(-c4ccccc4)c3=O)no2)c1	i
CCOC(=O)N1CCN(C(=O)CC(=O)Nc2ccc3nc4n(c(=O)c3c2)CCCCC4)CC1	1.9
O=c1c(C(c2ccccc2)c2c(O)sc3ccccc3c2=O)c(O)sc2ccccc12	0.2
COc1ccc(-c2nnc(NC(=O)c3cc(C)on3)s2)cc1	i
Cc1ccc(N/C(SCc2ccccc2C)=C(/C#N)C(=O)NCc2ccco2)cc1C	0.5
O=C(CN(Cc1ccco1)C(=O)CNS(=O)(=O)c1ccc(F)cc1)NCCc1ccccc1	i
CC(=O)c1ccc(NCC(=O)N2CCN(c3ccccc3)CC2)cc1	i
Cc1c(NC(=O)c2ccc(=O)oc2)c(=O)n(-c2ccccc2)n1C	0.8
O=C(CN1C(=O)CCS(=O)(=O)c2ccccc21)Nc1cccc(F)c1	0.9
Next section.
SMILES	H5N1 CPE
N#Cc1cc2c(nc1SCc1ccccc1)CCCCC2	0.1
COCCNC(=O)Cc1cn(C)c2ccccc12	0.3
COc1cc2[nH]c(=O)n(CCCCCC(=O)NCCCN3CCC(C)CC3)c(=O)c2cc1OC	0.0
COC(=O)c1cc(S(=O)(=O)n2nc(C)c(Br)c2C)c(Cl)cc1Cl	i
C=CCN(Cc1cc(OC)ccc1OC)S(=O)(=O)N(C)C	1.4
CC1(CC(=O)N/N=C/c2cc(Br)c(O)cc2O)OCCO1	1.2
CN(C)/C=N/c1c(C#N)nnn1Cc1ccccc1	i
CC(=O)Cc1nsc(NC(=O)c2cc(-c3ccc(Cl)c(Cl)c3)oc2C)n1	i
Cc1ccc(-n2c(-c3ccccc3)cc(=O)nc2C)cc1	1.2
Fc1ccccc1CCNCc1cccc(Cl)c1Cl	i
CCCC(c1nnnn1Cc1ccc(OC)cc1)N1CCN(c2ccccc2OC)CC1 (stereo not drawn)	2.7
O=C(O)CCNC(=O)c1ccc(Br)o1	0.5
COc1ccc2[nH]c(=O)c(CN(C)C(=O)c3ccncc3)cc2c1	i
CCCn1c(SCC(=O)N2CCN(c3ccc(OC)cc3)CC2)nc2c1c(=O)n(C)c(=O)n2C	1.0
Cc1ccccc1N(CC(=O)NC1CCCC1)C(=O)CS(=O)CC(=O)Nc1ccc2c(c1)OCO2 (stereo not drawn)	i
CC(=O)c1ccc(OC(=O)C2c3ccccc3Oc3ccccc32)cc1	i
O=S(Cc1cc(Sc2ccccc2)nc(-c2ccccc2)n1)c1ccccc1 (stereo not drawn)	1.3
CCn1c(SCc2nc(-c3ccc(OC)c(OC)c3)no2)nnc1-c1cccs1	i
COc1ccccc1CN1C(=O)CCC1(C)C(=O)NCc1cccnc1 (stereo not drawn)	0.1
CN1CCN(C(=O)c2c(O)c3cccc4c3n(c2=O)CC4)CC1	i
COc1ccccc1NC(=O)c1csc(-n2nc(C)cc2C(F)(F)F)n1	i
O=C(OCC1CCCN2CCCCC12)c1ccc2c(c1)OCO2 (stereo not drawn)	0.1
O=C(CCn1nc(-c2ccccc2)ccc1=O)NCCCN1CCCCCC1	1.8
Cc1nc2ccc3[nH]snc3c2n1	6.0
CC(C)(C)N1CC2([N+](=O)[O-])CN(C(C)(C)C)CC([N+](=O)[O-])(C1)C2	0.2
(cont.)
SMILES	H5N1 CPE
O=C(COc1ccc(-n2cnnn2)cc1)NCCc1ccc(F)cc1	i
Cc1cccc2c1N(C(=O)c1ccco1)C(C)(C)c1ssc(=S)c1-2	2.0
O=C(Nc1ccc(F)cc1Cl)c1ccc2c(=O)n3c(nc2c1)CCCCC3	0.1
Cn1c(=O)n(-c2cccc(Cl)c2)c(=O)n1C	i
Cc1noc(/C=C/c2ccco2)c1S(=O)(=O)N1CCC(C(=O)N2CCc3ccccc3C2)CC1	i
C=CCOc1cccc(C2/C(=C(/O)c3ccc(Cl)cc3)C(=O)C(=O)N2CCN2CCOCC2)c1 (stereo not drawn)	0.8
COc1ccc2cc3c(N)c(C(=O)NCc4ccco4)sc3nc2c1	0.8
O=C(CSc1nc2c([nH]c3ccccc32)c(=O)n1-c1cccc(Cl)c1)N1CCOCC1	1.8
C/C(CC(=O)Nc1ccccn1)=N\NC(=O)C(=O)Nc1ccccc1C	i
Cc1cccc2[nH]c(-c3ccc(NC(=O)c4ccco4)cc3)nc12	i
O=C(NC1CCCCC1)c1ccc(S(=O)(=O)NCc2ccco2)cc1	i
CCCC(=O)NC(C)C(c1cccs1)N1CCN(C)CC1 (stereo not drawn)	0.2
O=C(NC1CCCCC1)N(CCO)Cc1cc2cc3c(cc2[nH]c1=O)OCCO3	i
CCN1CCN(Cc2ccc(NC(=O)Nc3ccc(OC)cc3)cc2)CC1	i

Exported in CSV form: 2 of the compounds above.
smiles,H5N1 CPE
O=C(Nc1ccc(F)cc1Cl)c1ccc2c(=O)n3c(nc2c1)CCCCC3,0.1
Cn1c(=O)n(-c2cccc(Cl)c2)c(=O)n1C,i
